Screening results (PubChem)
B2AR ag = human beta-2 adrenergic receptor agonism by FAP; P07550; Am2.2-beta2AR cells, FAP receptor internalization, flow cytometry; reference of the scale not given here; response, % (test concentration not listed); hit rate 0.43% among 340,000;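 active = response above a set limit, near 3 SD of response in nonfluorescent compounds, cut at about 42% in these data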;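 note: stock transfer was 100 nL into about 11 µL; a reference agonist was the positive control; negative values mostly stem from fluorescent compounds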
Target sequence (P07550 whole entry, looked up): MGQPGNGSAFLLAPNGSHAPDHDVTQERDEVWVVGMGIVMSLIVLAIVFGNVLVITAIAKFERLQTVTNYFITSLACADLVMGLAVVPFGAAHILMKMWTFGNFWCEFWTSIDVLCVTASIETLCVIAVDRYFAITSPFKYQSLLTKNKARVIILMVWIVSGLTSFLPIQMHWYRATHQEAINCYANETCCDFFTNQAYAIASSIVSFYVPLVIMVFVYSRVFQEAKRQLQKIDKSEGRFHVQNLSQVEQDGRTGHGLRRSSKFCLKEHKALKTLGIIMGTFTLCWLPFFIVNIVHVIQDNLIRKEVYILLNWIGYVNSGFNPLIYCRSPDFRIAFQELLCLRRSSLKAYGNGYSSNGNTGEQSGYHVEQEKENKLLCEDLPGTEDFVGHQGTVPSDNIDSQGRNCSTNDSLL
UCH37 inh = blocks the human deubiquitinase UCH37; purified proteasome/UCH37, Ub-AMC cleavage fluorescence; hit rate 0.33% among 330,000; AID 588478; Q9Y5K5; inhibition, % (test concentration not listed);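 active = mean of two replicates above 20%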;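 note: 0% = compound-free wells with enzyme and 100% = wells lacking proteasome; stock transfer was 100 nL into about 20 µL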
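Schedule: 30 min plus 25 min, room temperature / Material: human UCH37 within purified proteasomes / Technique: AMC fluorescence intensity at 355/460 nm / Buffer or medium: pH 7.4 Tris-HCl (50 mM) with ovalbumin, ATP-MgCl2, DTT / Controls: wells without proteasome as full block, compound-free enzyme plus substrate as uninhibited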
FGF22 binding = shifts melting point of recombinant human FGF22 | Q9HCT0 | hit rate 1.5% among 340,000 | recombinant FGF22 thermal shift, SYPRO orange fluorescence; percent of sucrose octasulfate shift, DMSO zero | AID 651658 | calls only at 9.99 µM;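 active = melting point raised past a set limit in the mean and every replicate; three in four hits are not shown here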
Target sequence (Q9HCT0 whole entry, looked up): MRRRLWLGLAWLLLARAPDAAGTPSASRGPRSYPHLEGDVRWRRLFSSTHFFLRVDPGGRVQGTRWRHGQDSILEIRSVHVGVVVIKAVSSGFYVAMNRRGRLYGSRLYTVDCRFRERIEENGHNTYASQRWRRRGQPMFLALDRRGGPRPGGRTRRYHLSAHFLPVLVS
Ecoli growth = blocks Escherichia coli growth | OD600, 23 h; stronger effect = lower value | OD600 absorbance (no concentration beside the values) | hit rate 0.21% among 330,000;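 active = OD600 absorbance below the run mean of sample wells minus 3.6 SD, in any replicate, cut at about 0.56 in these data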;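 note: stock transfer was 300 nL into about 60 µL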
ALR inh = blocks human ALR sulfhydryl oxidase activity; purified ALR, DTT oxidation, H2O2 HRP-luminol luminescence; inhibition, % (concentration not given with the values); hit rate 3.8% among 290,000;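 active = mean and each replicate at 75% or more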;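 note: stock transfer was 7.5 nL into about 7.5 µL; 0% = neutral wells and 100% = wells with inactivated enzyme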
Target sequence (P55789 whole entry, looked up): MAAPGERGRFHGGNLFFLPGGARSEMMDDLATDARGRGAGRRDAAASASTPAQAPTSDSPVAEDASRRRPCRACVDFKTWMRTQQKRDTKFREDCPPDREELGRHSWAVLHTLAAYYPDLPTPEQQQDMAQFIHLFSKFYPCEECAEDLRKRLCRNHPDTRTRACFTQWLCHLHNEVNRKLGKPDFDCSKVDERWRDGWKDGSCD
Ecoli rRNA inh = inhibits bacterial ribosomal RNA function over humanized ribosomes; GFP signal change (wild-type ribosome), % (concentration not given with the values); E. coli WT GFP vs humanized-ribosome RFP mutants, fluorescence, 24 h; stronger effect = lower value; DMSO median 0, no signal -100; hit rate 1.6% among 350,000;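 active = significant combined selectivity score with lowered wild-type GFP, culture density cut under 30%, mutant RFP and density less affected; inactive = any of these conditions unmet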; note: one replicate is shown; some compounds called inactive have numbers as strong as hits
HNF4A DNA FP = change in binding of human HNF4 alpha to DNA. hit rate 0.3% among 360,000. HNF4a-FITC DNA binding, fluorescence polarization, 1 h. activity change, % at 10 µM. AID 1224865; in the data active = activity change above about 30%, passing the limit was not always enough;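 note: controls were the assay level and a saturating level of protein; the project sought stronger binding though the title names inhibitors; some compounds called inactive have numbers as strong as hits; positive values seem to mean higher polarization but the record does not say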
Ecoli rRNA inh OD600 = second read-out of Ecoli rRNA inh, no call of its own (marks repeat the call); OD600 change, %; measured here: OD600 growth;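 optical density of the mix in the first replicate; 0 = DMSO median and -100 = no signal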
Ecoli rRNA inh RFP = second read-out of Ecoli rRNA inh, no call of its own (marks repeat the call); RFP signal change, %; measured here: RFP humanized mutant strains;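 first replicate; 0 = DMSO median and -100 = no signal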
Active calls of the source: *; i = inactive; / = no result given; & = joins results of further samples. Only part of the results is shown; count on the stated rates, not on these rows.

SMILES	B2AR ag	UCH37 inh	FGF22 binding	Ecoli growth	ALR inh	Ecoli rRNA inh	Ecoli rRNA inh OD600	Ecoli rRNA inh RFP	HNF4A DNA FP
O=C(NCC(=O)N(c1ccccc1)C(C(=O)NC1CCCCC1)c1ccncc1)c1ccco1 (stereo not drawn)	-7.9	-0.4	/	0.734	-1.6	/	/	/	3.1
O=C1/C(=C\c2ccc(-c3ccccc3[N+](=O)[O-])o2)C(c2ccccc2)=NN1c1ccccc1	2.0	9.0	/	0.754	-2.2	/	/	/	-0.3
Cc1ccccc1OC(=O)C1C(c2ccccc2)C(C(=O)O)C1c1ccccc1 (stereo not drawn)	1.5	4.3	/	0.671	0.6	/	/	/	-2.5
COc1ccc(CCNc2nc(N3CCCCC3)nc(N3CCCCC3)n2)cc1OC	16.9	3.8	/	0.764	-6.0	/	/	/	2.1
Cn1cnc([N+](=O)[O-])c1SCC(O)CCl (stereo not drawn)	0.1	4.9	i	0.658	-7.9	5.1	-5.4	-2.4	0.8
COC(=O)c1cc(NC(=O)c2cc(-c3ccc(OC)cc3)oc2C(F)(F)F)ccc1N1CCOCC1	13.2	/	i	/	-3.6	-9.6	-3.3	54.1	3.4
O=C(Cc1ncc(C(F)(F)F)cc1Cl)NCCc1ccccc1	-5.3	-0.8	i	0.692	11.6	-1.6	1.9	1.8	-4.1
O=C(NCc1ccc(Cl)cc1)c1cc2c(nc3sccn32)s1	3.2	-8.3	/	0.716	/	/	/	/	-0.7
CCCC(=O)NCCc1nc2ccccc2n1CCC	1.0	3.1	i	0.68	-2.8	0.8	4.9	-1.2	-1.8
O=C(c1ccccc1Nc1ccc(SC(F)F)cc1)N1CCCCC1	2.0	-0.8	/	0.714	/	/	/	/	3.3
CCOc1ccc(N(CC(=O)Nc2ccc(OC)cc2)C2=NC3CS(=O)(=O)CC3S2)cc1 (stereo not drawn)	11.4	3.5	i	0.788	98.6*	1.6	4.4	-4.5	1.1
C#CCOc1ccc(/C=N/O)cc1Cl	9.4	/	i	/	15.7	2.7	12.1	3.8	2.0
COc1ccccc1NC(=O)CCCn1c(=S)[nH]c2ccccc2c1=O	-4.1	2.0	i	0.673	2.3	11.2	8.1	1.2	1.9
CCCNC(=O)c1cc(C2CCCN(S(=O)(=O)c3ccccc3)C2)on1 (stereo not drawn)	/	/	i	/	/	-3.5	-5.0	-8.2	4.7
CC(C)NC(=O)Nc1ccc2c(c1)C(=O)N([C@H](C)CO)C[C@H](C)[C@@H](CN(C)C(=O)Nc1ccccc1)O2	-13.3	-0.8	i	0.741	1.7	4.6&7.0	10.5&11.1	0.3&14.2	-0.9
CCOc1ccc(NC(=O)CN(C)C(=O)c2ccc(N3CCCCCC3)c([N+](=O)[O-])c2)cc1OCC	-2.9	2.0	i	0.698	-31.4	-11.8	-37.4	-0.8	0.9
Brc1ccc2c(c1)CN1CCCC1=N2	-6.3	/	i	/	-19.4	14.2	18.2	-0.4	-2.5
CCN(CC(=O)Nc1ccccc1C(F)(F)F)C(=O)c1cc(S(=O)(=O)N(C)C)ccc1N1CCCC1	-2.3	0.4	i	0.731	-2.7	6.1	4.5	0.4	3.9
O=C(CN1C(=O)NC2(CCCCC2)C1=O)NCCc1c[nH]c2ccccc12	2.0	3.8	i	0.682	8.1	3.8	6.1	1.4	-2.2
O=c1[nH]c(C2CCN(S(=O)(=O)c3ccccc3)CC2)nc2c1nnn2Cc1ccc2c(c1)OCCO2	3.0	7.2	i	0.709	0.4	-0.8	-3.1	-1.6	1.5

Compounds above that have two or more sulfur atoms:
SMILES	B2AR ag	UCH37 inh	FGF22 binding	Ecoli growth	ALR inh	Ecoli rRNA inh	Ecoli rRNA inh OD600	Ecoli rRNA inh RFP	HNF4A DNA FP
O=C(NCc1ccc(Cl)cc1)c1cc2c(nc3sccn32)s1	3.2	-8.3	/	0.716	/	/	/	/	-0.7
CCOc1ccc(N(CC(=O)Nc2ccc(OC)cc2)C2=NC3CS(=O)(=O)CC3S2)cc1 (stereo not drawn)	11.4	3.5	i	0.788	98.6*	1.6	4.4	-4.5	1.1

(cont.)
SMILES	B2AR ag	UCH37 inh	FGF22 binding	Ecoli growth	ALR inh	Ecoli rRNA inh	Ecoli rRNA inh OD600	Ecoli rRNA inh RFP	HNF4A DNA FP
CC1(C(=O)c2ccccc2)C2c3c(ccc4ccccc34)OC(=O)C21C(=O)N1CCOCC1 (stereo not drawn)	0.3	3.3	/	/	/	/	/	/	3.6
CNc1c([N+](=O)[O-])cnn1-c1ccccn1	5.5	9.2	i	0.697	-19.9	6.0	7.9	0.6	-0.6
CCOC(=O)c1c(C)[nH]c(C(C)=NNC(=O)Cn2nc(C)cc2C)c1C	0.6	4.6	i	0.702	-3.3	5.0	11.4	-1.5	5.9
COc1ccc(Cl)cc1S(=O)(=O)N1CCN(C(=O)c2n[nH]c(=O)c3ccccc23)CC1	-1.4	4.2	i	0.674	-1.8	3.2	1.1	15.7	5.6
Cc1ccc(OCC(=O)N/N=C/c2cn[nH]c2-c2ccc(Cl)c(Cl)c2)cc1	3.5	/	/	/	11.0	/	/	/	-0.2
CN(C)S(=O)(=O)c1ccc(-c2csc(-c3cccnc3)n2)cc1	-5.2	3.1	i	0.691	-36.4	-23.4	-40.8	27.3	-0.6
Cc1c(OCC(=O)N2CCC(C(N)=O)CC2)ccc2c3c(c(=O)oc12)CCC3	-3.6	-26.0	i	0.711	-12.3	0.4	8.4	1.4	2.5
COc1ccc(CNC(=O)CSc2nnc(C)n2-c2ccc(F)cc2)cc1	4.8	6.1	i	0.696	/	0.8	6.7	-0.9	3.9
COc1ccc(CNS(=O)(=O)c2ccc(Br)s2)cc1	-0.8	0.6	i	0.678	-10.2	51.1	-23.2	-1.7	8.0
COc1ccc(-c2cccc(NC(=O)c3ccc4c(c3)OCO4)c2)nn1	-1.8	-3.5	i	0.628	-10.4	-17.2	-22.0	-0.7	8.4
CC(=O)Cc1nsc(NC(=O)c2ccccc2Cl)n1	7.3	3.7	i	0.681	-0.8	-21.2	-21.5	-1.5	0.0
Cc1c(/C(O)=C2\C(=O)C(=O)N(CCCN(C)C)C2c2ccccc2)cnn1-c1ccccc1 (stereo not drawn)	-3.7	11.3	/	0.701	/	19.6	20.0	0.3	-1.4
O=c1oc2ccccc2c(Nc2ccc3ccccc3c2)c1[N+](=O)[O-]	-0.2	0.0	/	0.654	-9.9	/	/	/	2.3
O=C(COCC(=O)NCc1ccccc1)NCc1ccccc1	-6.0	1.3	i	0.637	-7.1	10.6	-4.0	3.0	3.4
CCOC(=O)C1=NOC(CN(c2ccccc2)S(=O)(=O)c2ccc(Cl)cc2)C1 (stereo not drawn)	-0.5	0.2	i	0.683	2.8	-7.3	-5.7	0.2	0.0
COC(=O)/C(=N\OCc1ccc(C#N)cc1)c1c(C)nn(C)c1C	-1.8	/	i	/	-2.3	0.8	3.2	3.0	0.8
CCCCCOC(=O)C1=C(C)NC(=O)NC1c1ccc2c(c1)OCO2 (stereo not drawn)	-9.2	1.7	i	0.639	2.7	-10.1	-6.2	-14.8	-2.8
COc1ccc([C@H]2/C=C\CN(C(=O)[C@H](Cc3ccccc3)NC(=O)OCC3c4ccccc4-c4ccccc43)CC(=O)N2Cc2ccc(F)cc2)cc1	-2.6	1.2	i	/	/	1.7	0.9	1.3	2.6
O=C(Nc1ccccc1C(=O)O)c1ccc(NC(=O)C2CC2)cc1	-2.6	2.6	i	0.698	/	9.8	14.8	-0.3	-0.3
CCN1C(=O)/C(=C/c2cccs2)SC1=Nc1ccc(OC)cc1	-0.6	-3.0	/	0.762	-16.4	/	/	/	1.3
O=C(CSc1ncnc2sc3c(c12)CCC3)NCC1CCCO1 (stereo not drawn)	-12.4	-0.1	i	0.723	-3.4	-8.6	-15.4	-5.5	-1.4
Nc1nc(-c2sc3nc4c(cc3c2N)CCCC4)nc(N2CCOCC2)n1	3.3	-29.2	/	0.737	2.4	/	/	/	2.4
COc1cc2nc(Nc3cccc(F)c3)nc(N)c2cc1OC	23.0	-22.0	i	0.601	-4.8	-25.0	-32.1	-10.9	3.2
CCN1C(=O)[C@H]2[C@@H](c3ccc(-c4ccc(Cl)c(Cl)c4)cc3)N3CCCC[C@@]3(C(=O)OC)[C@H]2C1=O	7.6	4.0	i	/	-0.5	14.9	17.9	0.2	6.2
Cc1cccc(C)c1Nc1nnc(SCC(=O)NCc2cccs2)s1	0.6	-0.7	/	0.726	-4.2	/	/	/	1.2
Cc1cc(C(=O)CSc2nc3ccccc3n2C)c(C)n1C	-7.5	1.2	/	0.666	/	/	/	/	-1.8
NC(=O)C[n+]1cccc(C(=O)Nc2ccccc2)c1	-3.4	-1.9	i	0.646	-7.6	-2.0	1.8	-2.8	5.8
Cc1cccc(C(=O)N2CCN=C2SCc2ccc([N+](=O)[O-])cc2)c1	0.9	4.1	i	0.72	98.9*	-7.2	-6.2	1.2	6.0
O=P(OC1CCS(=O)(=O)C1)(c1ccccc1)c1ccccc1 (stereo not drawn)	7.0	4.8	/	0.721	7.9	/	/	/	-2.9
Cc1cc(C)n(-c2nncn2NC(=O)c2ccc(Cl)cc2O)n1	-4.1	-2.2	/	0.659	6.1	/	/	/	0.1

Structures listed so far printed as active in ALR inh:
SMILES	B2AR ag	UCH37 inh	FGF22 binding	Ecoli growth	ALR inh	Ecoli rRNA inh	Ecoli rRNA inh OD600	Ecoli rRNA inh RFP	HNF4A DNA FP
CCOc1ccc(N(CC(=O)Nc2ccc(OC)cc2)C2=NC3CS(=O)(=O)CC3S2)cc1 (stereo not drawn)	11.4	3.5	i	0.788	98.6*	1.6	4.4	-4.5	1.1
Cc1cccc(C(=O)N2CCN=C2SCc2ccc([N+](=O)[O-])cc2)c1	0.9	4.1	i	0.72	98.9*	-7.2	-6.2	1.2	6.0

Next structures follow.
SMILES	B2AR ag	UCH37 inh	FGF22 binding	Ecoli growth	ALR inh	Ecoli rRNA inh	Ecoli rRNA inh OD600	Ecoli rRNA inh RFP	HNF4A DNA FP
CC(C)C(=O)N1CCN(c2nc3ccc(Cl)cc3s2)CC1	2.7	5.9	i	0.71	-8.1	-34.8*	-22.0*	-9.1*	-1.2
CC(=O)N[C@H]1[C@H](Oc2ccc3c(c2)CCC2C3CC[C@]3(C)C(=O)CCC23)O[C@H](CO)[C@@H](O)[C@@H]1O (stereo partly drawn)	-3.8	-0.5	i	0.665	-1.5	-10.8	-11.4	-0.8	1.6
Cc1nc(NC(=O)c2ccccc2)sc1C1(C)CC(c2ccccc2F)=NO1 (stereo not drawn)	2.6	0.9	i	0.678	/	-21.8	-10.6	10.3	-0.3
Cc1ccc(S(=O)(=O)N2C[C@H]3N(C(=O)OC(C)C)N(C(=O)OC(C)C)C[C@H](OC(=O)NCc4ccccc4F)[C@@]3(O)C2)cc1	/	/	i	/	/	-1.5	16.4	-0.5	-6.5
COC(=O)c1ccc(NC(=O)c2ccc(C)cc2)o1	-5.1	1.2	/	0.69	98.2*	/	/	/	0.4
COc1ccccc1-n1c(SCC(=O)Nc2ccc(F)cc2)nc2c(c1=O)SCC2	-7.9	0.7	i	0.625	69.8	-1.0	-8.6	-3.1	1.9
Cc1ccc(SCCNC(=O)c2ccc(C)c(S(=O)(=O)Nc3cccc(C)c3)c2)cc1	9.9	3.1	/	0.676	-1.9	/	/	/	-1.6
CCCC(=O)NC(C)C(c1cccs1)N1CCN(c2ccccc2)CC1 (stereo not drawn)	-2.9	1.3	/	0.721	97.6*	/	/	/	-1.4
Cc1ccc(C(=O)NCc2ccc(N3CCN(C)CC3)cc2)cc1C	-4.6	1.9	i	0.673	/	2.6	3.0	1.4	-0.1
COc1ccc(CCNC(=O)C(=O)NCCC2CCCCN2S(=O)(=O)c2cccs2)cc1 (stereo not drawn)	-7.2	1.8	i	0.691	-1.1	-1.0	-9.2	8.6	1.8
Cc1cc(C)c(S(=O)(=O)N2CCN=C2c2ccccc2)c(C)c1	8.9	5.6	/	0.722	-30.1	/	/	/	-1.8
